# High-throughput results: PubChem, National Center for Advancing Translational Sciences (NCATS)
# gsp antagonist – qHTS for Antagonists of gsp, the Etiologic Mutation Responsible for Fibrous Dysplasia/McCune-Albright Syndrome: qHTS. gsp-mutant cells, cAMP HTRF, 30 min; control for the full effect not named in the record. Potency, µM (highest dose often 76.9 µM), without a hit: top-dose activity change, negative = inhibition, actives largely listed as inhibitors. 0.4% of 340,000 active. AID 624288, 2012; active = falling curve of any shape with a large fitted effect; inconclusive = falling curve, mostly with a smaller effect; inactive = flat or rising curve; cell line not stated here;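 also: intracellular cAMP measured with PDE inhibitor Ro 20-1724 present during compound exposure; potency is read from the fitted curve at half-maximal effect; % is scaled to controls: 0 for no effect and ±100 for the full control effect; nearly all actives have a fitted effect of over 65% in size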
#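 G418-selected cells were plated in DMEM/10% FBS for 16-24 h at 37C, then treated with compounds plus the PDE inhibitor […] (300 uM solution added) for 30 min at 37C. Intracellular cAMP was measured by HTRF after 30 min lysis at room temperature.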
# Sfp inh – qHTS Assay for Inhibitors of Bacillus subtilis Sfp phosphopantetheinyl transferase (PPTase). Potency, µM, without a hit: max response, negative = inhibition, most hits filed as inhibitors. 3.5% of 310,000 active. Biochemical Sfp PPTase activity, qHTS; active = well fitted inhibition curve with a large enough effect; inconclusive = small, poorly fitted or top-dose-only effect, or another doubt; inactive = no such curve, though single readings can be large or run the other way;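 also: the enzyme is Sfp with the accession as filed and its product quenches rhodamine fluorescence; potency is read from the fitted curve at half-maximal effect; 0% = enzyme reaction without inhibitor and -100% = no enzyme wells; top concentration of the series not given in the record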
#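 Step 1, compound plus 15 nM Sfp-PPTase, 15 min, room temperature. Step 2, add rhodamine-CoA (5 uM) and BHQ-2-YbbR (12.5 uM). Step 3, read 525/598 nm fluorescence at 0 and 30 min.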
# ClpP mod – qHTS Assay for Activators of ClpP; ATP-dependent Clp protease proteolytic subunit (Bacillus subtilis (strain 168)), P80244; purified B. subtilis ClpP, FRET peptide cleavage, 20 min; Potency, µM (top dose mostly 57.5 µM), for the others: top-dose activity change, negative = active; 1.9% of 340,000 active; AID 651965, 2013; active = well fitted falling curve with a large enough effect; inconclusive = small, poorly fitted or top-dose-only effect; inactive = no such curve, though single readings can be large or run the other way; also: potency is read from the fitted curve at half-maximal effect; the source files actives as falling curves though it sought activators and does not explain the sign; nearly all actives have a fitted effect of over 65% in size; many hits overshoot -100%
#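 Buffer: 100 mM Tris/HCl pH8, 100 mM KCl, 0.05% low protease BSA, 2.5% glycerol, 0.01% Tween-20. ClpP 10 microg/mL final; 20 min RT; delta FRET normalized to ADEP and DMSO controls.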
# TRPV1 PAM – HTS Assay for Compounds that Act as Potentiators of the Vanilloid Receptor 1 | TRPV1-expressing cells, Fluo-8 calcium influx, capsaicin EC20 potentiation; host cell line not named in the record; control for the full effect not named in the record | potentiation, % at 8.33 µM | 0.02% of 320,000 active; active means potentiation above 80%; inconclusive means 30% to 80%; inactive means below 30%; also: 0% is about no effect
# Target sequence (Q8NER1 whole entry, looked up): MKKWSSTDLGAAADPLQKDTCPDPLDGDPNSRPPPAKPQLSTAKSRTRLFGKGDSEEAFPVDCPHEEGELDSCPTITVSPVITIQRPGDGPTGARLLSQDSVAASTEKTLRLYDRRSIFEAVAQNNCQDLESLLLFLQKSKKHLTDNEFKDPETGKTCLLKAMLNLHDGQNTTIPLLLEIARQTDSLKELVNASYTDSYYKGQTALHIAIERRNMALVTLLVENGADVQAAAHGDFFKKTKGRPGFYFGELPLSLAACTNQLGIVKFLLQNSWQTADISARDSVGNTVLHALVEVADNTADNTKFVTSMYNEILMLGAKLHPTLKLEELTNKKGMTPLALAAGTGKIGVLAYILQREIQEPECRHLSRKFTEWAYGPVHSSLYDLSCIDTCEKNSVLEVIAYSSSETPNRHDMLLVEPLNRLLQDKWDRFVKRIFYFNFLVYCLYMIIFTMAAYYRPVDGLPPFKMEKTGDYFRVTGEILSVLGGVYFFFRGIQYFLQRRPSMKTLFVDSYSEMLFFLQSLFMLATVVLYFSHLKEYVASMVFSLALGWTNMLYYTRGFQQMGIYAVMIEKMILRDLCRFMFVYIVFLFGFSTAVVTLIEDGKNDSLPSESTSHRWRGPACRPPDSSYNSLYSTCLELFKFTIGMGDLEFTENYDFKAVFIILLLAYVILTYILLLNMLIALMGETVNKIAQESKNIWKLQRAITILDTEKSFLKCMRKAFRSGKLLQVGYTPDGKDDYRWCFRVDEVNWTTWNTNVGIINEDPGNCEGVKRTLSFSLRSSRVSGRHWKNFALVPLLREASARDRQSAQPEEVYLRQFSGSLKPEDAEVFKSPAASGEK
#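 TRPV1-expressing cells were cultured overnight at 35.5C and loaded with Fluo-8 calcium dye for 40 to 90 min at room temperature. After a 10 s baseline, compound was added and calcium influx was read kinetically for 3 min (ex 480/em 520 nm).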
# Menin-MLL FL inh – qHTS Assay for Inhibitors Targeting the Menin-MLL Interaction in MLL Related Leukemias: Competition With Fluorescein Labeled MLL-derived Peptide. Fluorescence polarization, fluorescein-MLL peptide displacement from menin. FP activity change, % at 61.4 µM. 290,000 tested, under 10 active. AID 1766, 2009; inconclusive = falling polarisation curve, or a change in total fluorescence; inactive = total fluorescence flat and polarisation flat or rising; no compound was filed as active; the % refers to the polarisation; negative = inhibition;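 also: % of control where 0% means no effect; inhibitors lower the polarisation; unlabelled MLL peptide was the positive control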
# gsp ag – qHTS for Agonist of gsp, the Etiologic Mutation Responsible for Fibrous Dysplasia/McCune-Albright Syndrome: qHTS. gsp mutant cells, cAMP HTRF, 30 min; control for the full effect not named in the record. Potency, µM (series often up to 76.9 µM), without a hit: top-dose activation (cAMP increase), hits mostly activators. 0.13% of 340,000 active. AID 624287, 2012; active = well fitted activation curve with a large enough effect; inconclusive = small, poorly fitted or top-dose-only effect, or another doubt; inactive = no such curve, though single readings can be large or run the other way; cell line not stated here;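 also: phosphodiesterase inhibitor Ro 20-1724 added with compounds to block cAMP breakdown; potency is read from the fitted curve at half-maximal effect; nearly all actives have a fitted effect of over 60% in size; about a fifth of the inactives were tested at one dose only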
#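 Cells in DMEM/10% FBS with G418 were pretreated with compounds in DMSO plus […] (300 uM stock) for 30 min at 37C. cAMP was measured by HTRF (cAMP-d2 plus anti-cAMP antibody-K) after 30 min at room temperature.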
# CtBP-E1A blk – qHTS Assay for Inhibitors of the CtBP/E1A Interaction; AlphaScreen GST-E1A/His-CtBP binding, 1536-well; active compounds read low; control for the full effect not named in the record; activity change, % (test concentration not listed); 0.49% of 340,000 active; in the data active means activity change below about -65%; inconclusive means about -30% to -65%; inactive means above about -30%; also: % is scaled to controls: 0 for no effect and ±100 for the full control effect
#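 Homogeneous bead-based format: GST-tagged E1A captured on glutathione donor beads, His-tagged CtBP on nickel acceptor beads; compounds precede bead addition by 2 h at 37 °C.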
# * hit, by the source's call; ? = inconclusive; · = not tested or not shown; & = joins results of further samples; [ ] = remark or other dose.
# Sequence of screens – gsp antagonist, Sfp inh, ClpP mod, TRPV1 PAM, Menin-MLL FL inh, gsp ag, CtBP-E1A blk
CC(C)C(NC(=O)C(Cc1ccccc1)NC(=O)OCc1ccccc1)C(=O)O (stereo not given)
    6.1%, 3.0%, ·, 7.7, -2.1, 0.2%[15.4 µM], -13.0
CS(=O)(=O)Nc1ccc(Cc2ccc(NS(C)(=O)=O)cc2)cc1
    -8.5%, 11.7%, -0.6%, -18.5, 1.2, 0.4%, 4.5
CC(C)(C)c1cc(Cl)ccc1OCCn1ccnc1
    5.5%, -28.5%, ·, ?, -4.2, -30.0%, -21.1
Cc1nc2ncccn2c1-c1csc(Nc2ccc(N(C)C)cc2)n1
    13.7%, ?, ·, 8.7, 0.3, 1.5%[15.4 µM], ?
O=C(CSc1ccc2nnc(CCNC(=O)c3ccccc3)n2n1)NCc1ccco1
    2.8%, 13.3%, -5.4%, -1.9, ·, -15.2%[15.4 µM], 3.1
CCN(CC(=O)Nc1ccc(NC(C)=O)cc1)C(=O)c1ccc(=O)n(C)n1
    17.9%, ·, 0.5%, -6.3, ·, 13.3%, 2.0
CC1CCN(S(=O)(=O)c2ccc3c(c2)c(=O)c(C(=O)N2CCCCC2)cn3C)CC1
    -19.9%, 0.7%, -3.9%, 0.5, -1.0, 3.7%, 4.6
Cc1ccc(NC(=S)N2CCn3cccc3C2c2cccnc2)cc1 (stereo not given)
    -8.4%, 4.0%, -0.4%, -6.9, 2.5, -0.7%, 1.3
Cc1ccc(S(=O)(=O)N2CCC(NC(=O)OC(C)C)CC2)cc1
    1.1%, 0.9%, ·, -8.8, 0.9, 7.1%[15.4 µM], 20.6
Cn1c(=O)c(=O)n(C)c2cc(S(=O)(=O)CCC(=O)Nc3c(F)c(F)c(F)c(F)c3F)ccc21
    5.2%, 4.2%, -17.6%, 20.6, ·, -27.1%, -7.1
COc1ccc(-c2sc(Nc3ccc(F)c(F)c3F)nc2CCC(=O)NN)cc1
    -11.5%, 10.1%, ·, 16.7, -4.2, 7.0%[15.4 µM], -1.2
CN(C(=O)CSc1ccc(S(=O)(=O)N2CCCCC2)cn1)c1ccccc1
    -3.8%, ·, 1.8%, -2.1, ·, -6.9%, 3.3
O=[N+]([O-])c1cncc([N+](=O)[O-])c1Nc1ccccc1Cl
    3.1%, 18.8%, ·, -2.4, -0.4, -36.2%[inhibitor], -25.1
O=C1NC(=Nc2ccccc2)S/C1=C\c1cccs1
    -8.4%, 0.2%, 0.0%, 1.1, 1.5, -26.8%, -8.8
OCCN=c1cc(-c2ccccc2)oc2ccc(Cl)cc12
    8.0%, 89.1µM*, -0.6%, -4.7, -1.0, -46.5%[inhibitor], -10.2
O=C(NC(NC(=S)Nc1cc(Cl)ccc1Cl)C(Cl)(Cl)Cl)c1ccco1 (stereo not given)
    -29.2%, 10.1%, 3.1%, -0.1, 1.7, -42.0%[inhibitor], 12.5
CCOc1cc(/C=N/NC(=O)c2cccc([N+](=O)[O-])c2)ccc1OS(=O)(=O)c1ccccc1
    -16.8%, 22.0%, -1.8%, -8.9, 2.2, -58.4%[inhibitor], -8.9
Cc1ccc(N(CCC(=O)N2CCOCC2)S(=O)(=O)c2ccccc2)cc1
    12.6%, ·, 1.0%, -11.5, ·, 3.1%, 0.1
Cc1nc2c3cnn(-c4ccccc4)c3ncn2n1
    -1.3%, 2.4%, ?, -3.5, 0.8, 7.6%, -11.8
Cc1nn(CC(=O)Nc2ccccn2)c(C)c1Br
    8.5%, 2.9%, 0.8%, 17.3, ·, 23.5%, 4.8
O=C(COC(=O)CCS(=O)(=O)c1ccccc1)Nc1ccc(N2CCCCC2)cc1
    -4.4%, ·, -0.9%, -13.8, ·, 6.1%, ·
COC(=O)CCn1nnc(-c2ccc(C)cc2)n1
    1.3%, 3.6%, -1.4%, 5.2, 3.3, -0.2%, 8.3
Cc1[nH]nc2c1C(c1cccs1)C(C#N)=C(N)O2 (stereo not given)
    -7.1%, 19.4%, ·, 0.5, -0.2, 7.9%[15.4 µM], -0.3
COc1cc(NC(=O)CN2C(=O)NC(C)(c3ccc(OC(F)F)cc3)C2=O)cc(OC)c1OC (stereo not given)
    -9.0%, 17.8%, ·, 5.0, -4.3, -1.9%[15.4 µM], 4.2
CCOC(=O)CNC(=O)COc1coc(CN2CCN(c3ccc(F)cc3)CC2)cc1=O
    -6.3%, 17.3%, 0.3%, 6.7, ·, -30.4%[inhibitor], ·
CC(=O)Nc1nc(C)c(CCCOc2ccc([N+](=O)[O-])cc2)c(=O)[nH]1
    4.5%, 14.2%, -1.1%, -8.7, 1.9, -49.3%[inhibitor], ·
O=C(N/N=C/c1cc([N+](=O)[O-])ccc1N1CCCCCC1)c1ccccn1
    ?, 2.6%, -2.2%, -14.1, 1.5, -22.5%, -16.3
COc1ccccc1C(=O)NC(CCSC)C(=O)Nc1ccc(C)c(S(=O)(=O)N2CCOCC2)c1 (stereo not given)
    -13.0%, ·, 0.3%, ·, ·, -24.3%, -18.7
Cc1ccc(OC(=O)c2ccc3nc(C)sc3c2)cc1
    3.0%, 21.7%, ·, 2.6, -0.6, 8.2%[15.4 µM], 16.7
O=C(CCC(=O)OCC(=O)c1ccccc1)Nc1cccc2cccnc12
    -1.5%, 5.0%, -3.3%, 4.3, 2.2, 3.3%, -7.2
CCN(CC)Cc1c(O)ccc2c(=O)c(Oc3ccccc3OC)c(C)oc12
    -0.4%, 15.3%, 3.8%, -8.8, -5.2, ?, -3.5
CC(C)(C)C(=O)Cn1c(NCCCO)nc2ccccc21
    12.9%, 11.6%, 2.8%, ?, 1.5, -20.9%, 0.4
COc1ccc(C(=O)C2CCCN(Cc3cc(C)c(O)c(C)c3)C2)c(OC)c1 (stereo not given)
    3.7%, 11.9%, -4.4%, 1.3, -17.6, -7.4%[15.4 µM], -5.4
O=C1CC(NS(=O)(=O)c2cccnc2)CN1c1ccc(Cl)cc1 (stereo not given)
    9.1%, ·, -1.9%, 13.8, ·, -25.6%, 10.2
CCc1ccc(OCC(=O)NNC(=O)c2c(CC)noc2C)cc1
    4.8%, ·, -0.8%, 1.1, ·, 4.6%, -5.0
C/C(N)=C(/C#N)C(=O)CSc1nnc(Cc2ccccc2F)n1N
    10.8%&-7.2%, 2.5%, -0.9%&-5.1%, -3.7, -1.2, -10.0%&-12.6%, 6.1&-12.1
CN(Cc1ccc(Cl)cc1Cl)C(=O)CN1C(=O)NC2(CCCC2)C1=O
    -1.1%, ·, 25.1µM*, -6.2, ·, 3.2%[15.4 µM], 4.7
CC1CCN(C(=O)CSc2nnc(-c3ccncc3)n2C)CC1
    3.7%, 16.2%, 1.4%, 25.2, 4.0, -54.7%[inhibitor], 3.0
CCOC(=O)c1cc(COc2cc(Cl)cc(Cl)c2)on1
    -5.9%, -2.3%, 0.3%, -12.2, -1.4, -2.7%[15.4 µM], 2.2
COc1ccc(-c2[nH]ncc2/C=N/NC(=O)c2cccc([N+](=O)[O-])c2)cc1OC
    -18.3%, -17.5%, -0.1%, -3.1, 4.2, ?, -11.5
COC(=O)C1CCN(C(=O)CN(C)Cc2ccc(C(C)(C)C)cc2)CC1
    9.0%, 18.3%, ·, -12.2, ·, -12.5%[15.4 µM], 6.0
COc1ccc(N2C(=O)C(Cl)=C(N3CCOCC3)C2=O)cc1
    -3.2%, 1.5%, ·, -20.1, 3.6, -86.7%[inhibitor], -20.4
CCOC(OCC)P(=O)(C(C)C)C(C)C
    2.9%, 5.7%, 1.8%, 1.3, 0.4, -24.8%, -0.4
CC(C)N(C(=O)CN1CCC(c2nc3ccccc3[nH]2)CC1)C(C)C
    -4.3%, 5.6%, -2.9%, 7.6, ·, 12.5%, ·
CC(C)CNS(=O)(=O)c1ccc(OCC(=O)Nc2ccc(F)cc2F)cc1
    2.0%, 3.0%, ?, 12.0, -3.1, 22.2%, -0.1
CC(=O)Nc1ccc(S(=O)(=O)NCc2csc(C)n2)cc1
    0.7%, 14.6%, -0.8%, 27.7, 0.1, -36.5%[inhibitor], 4.5
CCCC(=O)Nc1ccc2c(c1)nc1n2CCN(CCOC)C1
    3.1%, -13.4%, -2.1%, 12.7, -4.6, 13.1%[15.4 µM], -22.2
Cc1ccc(CCNC(=O)C23CN(Cc4ccccc4)CC2C(c2ccc([N+](=O)[O-])cc2)=NO3)cc1 (stereo not given)
    5.6%, 10µM*, 1.0%, 7.1, -1.9, ?, ?
